Bioassay records deposited in PubChem by Broad Institute.
A1 apoptosis 2: compounds inhibiting A1, read as caspase activation | caspase activation, % (no concentration beside the values) | MEF A1-2A-BIM cells, caspase-Glo luminescence, 3 h; percent of clofoctol response, DMSO zero | 24,000 tested, under 10 active; in the data active means caspase activation above about 5.9%;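 further: wells of about 30 µL received 50 nL stock; the first replicate is given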
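system = A1-2A-BIM-expressing MEF cells | quantity = 2500 MEF cells/well | dosing = 50 nL compound per well, pinned | schedule = overnight cell settling, then 3 h compound exposure, 37 °C | signal = luminescence from DEVD-luciferin Caspase-Glo reagent, 1:1 in 50 mM HEPES, 1 h RT | read-out = Caspase-3/7 activation, seen as rise in luminescence signal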
Numbers without * were called inactive. Only part of the results is shown; the hit share may differ from the screen's.

SMILES | A1 apoptosis 2
COc1ccc(CN(C)C[C@H]2Oc3ccc(NC(=O)NC(C)C)cc3CC(=O)N([C@H](C)CO)C[C@H]2C)cc1 | 0.6
COc1ccc(S(=O)(=O)N(C)C[C@@H]2Oc3ncccc3C(=O)N([C@H](C)CO)C[C@@H]2C)cc1 | 0.0
C[C@@H]1CN([C@H](C)CO)C(=O)c2cc(NC(=O)CCCN(C)C)ccc2O[C@@H]1CN(C)S(=O)(=O)c1ccccc1 | 0.5
C[C@@H]1CCCCO[C@@H](CN(C)Cc2ccc3c(c2)OCO3)[C@@H](C)CN([C@@H](C)CO)C(=O)c2cc(NC(=O)Nc3ccc(F)cc3)ccc2O1 | 0.0
CO[C@H]1O[C@H](CO)[C@@H](OC(=O)Nc2ccccc2-c2ccccc2)[C@H](OC(=O)Nc2ccccc2)[C@H]1OC(=O)Nc1ccccc1 | -3.0
C[C@@H]1CN([C@H](C)CO)C(=O)CCCn2cc(nn2)CO[C@@H]1CN(C)S(=O)(=O)c1cccs1 | -1.7
COc1ccc(S(=O)(=O)N(C)C[C@H]2Oc3ccc(NS(C)(=O)=O)cc3CC(=O)N([C@@H](C)CO)C[C@@H]2C)cc1 | -0.6
C[C@@H]1CN([C@@H](C)CO)C(=O)Cc2cc(NC(=O)Nc3ccccc3)ccc2O[C@H]1CN(C)Cc1ccc(Cl)c(Cl)c1 | 0.1
CC(C)NC(=O)N(C)C[C@@H]1Oc2ccc(NS(=O)(=O)c3ccccc3)cc2C(=O)N([C@@H](C)CO)C[C@@H]1C | -0.1
Cc1ccc(S(=O)(=O)N(C)C[C@H]2Oc3ccc(N(C)C)cc3C(=O)N([C@H](C)CO)C[C@@H]2C)cc1 | 0.1
C[C@@H]1CCCCO[C@@H](CN(C)Cc2ccc3c(c2)OCO3)[C@H](C)CN([C@@H](C)CO)C(=O)c2cc(NS(=O)(=O)c3ccc(F)cc3)ccc2O1 | 1.1
Cc1noc(C)c1S(=O)(=O)N(C)C[C@H]1Oc2ccc(N(C)C)cc2CC(=O)N([C@@H](C)CO)C[C@@H]1C | 0.1

Exported field by field: 4 of the compounds above.
C[C@@H]1CN([C@H](C)CO)C(=O)CCCn2cc(nn2)CO[C@@H]1CN(C)S(=O)(=O)c1cccs1
  A1 apoptosis 2: -1.7

Cc1noc(C)c1S(=O)(=O)N(C)C[C@H]1Oc2ccc(N(C)C)cc2CC(=O)N([C@@H](C)CO)C[C@@H]1C
  A1 apoptosis 2: 0.1

C[C@@H]1CCCCO[C@@H](CN(C)Cc2ccc3c(c2)OCO3)[C@H](C)CN([C@@H](C)CO)C(=O)c2cc(NS(=O)(=O)c3ccc(F)cc3)ccc2O1
  A1 apoptosis 2: 1.1

COc1ccc(S(=O)(=O)N(C)C[C@H]2Oc3ccc(NS(C)(=O)=O)cc3CC(=O)N([C@@H](C)CO)C[C@@H]2C)cc1
  A1 apoptosis 2: -0.6

Additional results:
SMILES | A1 apoptosis 2
C[C@@H]1CN([C@@H](C)CO)C(=O)CCCn2nncc2CO[C@H]1CN(C)Cc1ccc(C(F)(F)F)cc1 | -1.4
C[C@@H]1CN([C@H](C)CO)C(=O)c2cc(NS(=O)(=O)c3cccs3)ccc2O[C@@H]1CN(C)CC1CC1 | -1.2
CNC[C@@H]1Oc2c(NC(=O)Nc3ccccc3)cccc2C(=O)N([C@H](C)CO)C[C@@H]1C | 0.4
Cc1noc(C)c1NC(=O)N(C)C[C@@H]1OCCCC[C@@H](C)Oc2ccc(NS(=O)(=O)c3cccs3)cc2C(=O)N([C@H](C)CO)C[C@@H]1C | 0.0
COc1ccc(S(=O)(=O)N(C)C[C@H]2Oc3ccc(NC(=O)CCC(F)(F)F)cc3CC(=O)N([C@@H](C)CO)C[C@H]2C)cc1 | 0.0
COc1ccc(S(=O)(=O)Nc2cccc3c2O[C@H](CN(C)Cc2ccc4c(c2)OCO4)[C@@H](C)CN([C@H](C)CO)C3=O)cc1 | 1.5
C[C@@H]1CN([C@@H](C)CO)C(=O)Cc2cc(NC(=O)Nc3ccc(F)cc3)ccc2O[C@@H]1CN(C)C | -0.1
C[C@@H]1CN([C@H](C)CO)C(=O)c2cccc(NS(=O)(=O)c3cn(C)cn3)c2O[C@H]1CN(C)C(=O)NC1CCCCC1 | 0.1
Cc1noc(C)c1S(=O)(=O)N(C)C[C@H]1OCCCC[C@@H](C)Oc2ccc(NC(=O)Nc3ccc(F)cc3)cc2C(=O)N([C@@H](C)CO)C[C@@H]1C | -1.2
Cc1noc(C)c1S(=O)(=O)N(C)C[C@H]1Oc2c(cccc2N(C)C)C(=O)N([C@H](C)CO)C[C@@H]1C | -0.7
C[C@@H]1CCCCO[C@H](CN(C)Cc2ccncc2)[C@H](C)CN([C@H](C)CO)C(=O)c2cc(NC(=O)NC3CCCCC3)ccc2O1 | -0.1
COc1ccc(CN(C)C[C@H]2Oc3c(NC(=O)Nc4c(C)noc4C)cccc3C(=O)N([C@@H](C)CO)C[C@@H]2C)cc1 | 1.3
C[C@@H]1CCCCO[C@@H](CN(C)C(=O)Nc2ccc3c(c2)OCO3)[C@@H](C)CN([C@H](C)CO)C(=O)c2cc(NC(=O)NC3CCCCC3)ccc2O1 | -0.7
Cc1noc(C)c1S(=O)(=O)Nc1ccc2c(c1)C(=O)N([C@H](C)CO)C[C@@H](C)[C@@H](CN(C)C(=O)c1ccncc1)OCCCC[C@H](C)O2 | -0.5
Cc1noc(C)c1NC(=O)Nc1cccc2c1O[C@H](CN(C)Cc1ccc3c(c1)OCO3)[C@@H](C)CN([C@@H](C)CO)C2=O | -0.3
C[C@H]1CN([C@@H](C)CO)C(=O)Cc2cc(NC(=O)NC3CCCCC3)ccc2O[C@H]1CN(C)Cc1ccc(C(=O)O)cc1 | -0.8
C[C@H]1CN([C@@H](C)CO)C(=O)Cc2cc(NC(=O)Cc3cn(C)c4ccccc34)ccc2O[C@H]1CN(C)Cc1ccc(C(F)(F)F)cc1 | 2.2
C[C@H](CO)N1C[C@H](C)[C@H](CN(C)Cc2ccc(-c3ccccc3)cc2)Oc2ccc(NS(=O)(=O)c3ccccc3)cc2CC1=O | -1.1
C[C@H]1CN([C@@H](C)CO)C(=O)c2cccc(NS(=O)(=O)c3ccccc3)c2O[C@@H]1CN(C)C(=O)NC1CCCCC1 | -1.1
C[C@@H]1CCCCO[C@H](CN(C)S(=O)(=O)c2ccccc2)[C@H](C)CN([C@@H](C)CO)C(=O)c2cc(NC(=O)NC3CCCCC3)ccc2O1 | 1.8
C[C@H](CO)N1C[C@H](C)[C@@H](CN(C)C(=O)Nc2ccc3c(c2)OCO3)OCCCC[C@H](C)Oc2ccc(NS(=O)(=O)c3ccccc3)cc2C1=O | -1.1
C[C@H]1CN([C@@H](C)CO)C(=O)c2cc(NC(=O)C3CC3)ccc2O[C@H]1CN(C)Cc1ccc(Oc2ccccc2)cc1 | 0.3
C[C@@H]1CN([C@H](C)CO)C(=O)c2cc(NC(=O)C3CC3)ccc2O[C@@H]1CN(C)Cc1ccc(C(F)(F)F)cc1 | 1.4
C[C@@H]1CN([C@H](C)CO)C(=O)c2cc(NS(=O)(=O)c3ccc(F)cc3)ccc2O[C@@H](C)CCCCO[C@@H]1CN(C)C(=O)NC1CCCCC1 | -0.5
Cc1noc(C)c1S(=O)(=O)Nc1ccc2c(c1)C(=O)N([C@@H](C)CO)C[C@@H](C)[C@H](CN(C)C(=O)c1ccncc1)OCCCC[C@@H](C)O2 | -0.9
C[C@@H]1CN([C@@H](C)CO)C(=O)c2cc(NC(=O)Cc3ccccc3)ccc2O[C@@H]1CN(C)C(=O)Nc1ccc(C(F)(F)F)cc1 | 1.3
C[C@@H]1CCCCO[C@@H](CN(C)C(=O)Nc2cccc3ccccc23)[C@@H](C)CN([C@H](C)CO)C(=O)c2cc(NC(=O)Nc3ccc(F)cc3)ccc2O1 | 0.3
C[C@@H]1CN([C@@H](C)CO)C(=O)c2cccc(NC(=O)NC3CCCCC3)c2O[C@@H]1CN(C)S(=O)(=O)c1ccccc1 | 0.7
C[C@@H]1CN([C@H](C)CO)C(=O)c2cccc(NS(C)(=O)=O)c2O[C@H]1CN(C)C(=O)Nc1cccc2ccccc12 | -0.8
C[C@@H]1CN([C@H](C)CO)C(=O)Cc2cc(NC(=O)Cn3cnnn3)ccc2O[C@@H]1CN(C)Cc1ccc2c(c1)OCO2 | -0.3
CC(C)NC(=O)Nc1ccc2c(c1)C(=O)N([C@@H](C)CO)C[C@H](C)[C@H](CN(C)Cc1ccc(C(=O)O)cc1)OCCCC[C@@H](C)O2 | -0.2
C[C@@H]1CN([C@@H](C)CO)C(=O)c2cc(N(C)C)ccc2O[C@@H](C)CCCCO[C@@H]1CN(C)C(=O)Cc1ccccc1 | 0.2
COc1ccc(S(=O)(=O)N(C)C[C@@H]2Oc3c(NC(=O)C4CCOCC4)cccc3C(=O)N([C@H](C)CO)C[C@@H]2C)cc1 | 0.0
C[C@@H]1CN([C@H](C)CO)C(=O)c2cc(NC(=O)Nc3ccccc3)ccc2O[C@@H](C)CCCCO[C@@H]1CN(C)Cc1ccc2c(c1)OCO2 | -0.1
COc1ccc(NC(=O)N(C)C[C@H]2OCc3cnnn3CCCC(=O)N([C@@H](C)CO)C[C@@H]2C)cc1 | -0.9
Cc1noc(C)c1S(=O)(=O)N(C)C[C@@H]1Oc2ccc(NC(=O)Nc3cccc4ccccc34)cc2CC(=O)N([C@@H](C)CO)C[C@@H]1C | 0.5

A different layout for part of the listing above.
structure: C[C@@H]1CN([C@H](C)CO)C(=O)c2cc(NC(=O)Nc3ccccc3)ccc2O[C@@H](C)CCCCO[C@@H]1CN(C)Cc1ccc2c(c1)OCO2
  A1 apoptosis 2: -0.1
structure: COc1ccc(NC(=O)N(C)C[C@H]2OCc3cnnn3CCCC(=O)N([C@@H](C)CO)C[C@@H]2C)cc1
  A1 apoptosis 2: -0.9
structure: Cc1noc(C)c1S(=O)(=O)N(C)C[C@@H]1Oc2ccc(NC(=O)Nc3cccc4ccccc34)cc2CC(=O)N([C@@H](C)CO)C[C@@H]1C
  A1 apoptosis 2: 0.5

(cont.)
SMILES | A1 apoptosis 2
C[C@H]1CN([C@@H](C)CO)C(=O)c2cc(NC(=O)CCC(F)(F)F)ccc2O[C@@H]1CN(C)Cc1ccc(Oc2ccccc2)cc1 | -0.1
CNC[C@@H]1OCCCC[C@H](C)Oc2ccc(NC(=O)c3ccncc3)cc2C(=O)N([C@H](C)CO)C[C@H]1C | -0.2
Cc1noc(C)c1NC(=O)N(C)C[C@@H]1Oc2ccc(NC(=O)C3CC3)cc2CC(=O)N([C@H](C)CO)C[C@H]1C | 0.0
Cc1noc(C)c1S(=O)(=O)Nc1ccc2c(c1)C(=O)N([C@@H](C)CO)C[C@H](C)[C@@H](CN(C)C(=O)Nc1ccc3c(c1)OCO3)O2 | -0.9
COc1ccc(S(=O)(=O)N(C)C[C@H]2OCCCC[C@@H](C)Oc3ccc(NS(=O)(=O)c4c(C)noc4C)cc3C(=O)N([C@@H](C)CO)C[C@@H]2C)cc1 | -0.4
CNC[C@@H]1Oc2ccc(NC(=O)NC3CCCCC3)cc2CC(=O)N([C@@H](C)CO)C[C@H]1C | 0.5
C[C@H]1CCCCO[C@@H](CN(C)Cc2ccc(C(F)(F)F)cc2)[C@@H](C)CN([C@@H](C)CO)C(=O)c2cc(NC(=O)CCC(F)(F)F)ccc2O1 | 0.7
COc1ccc(NC(=O)N(C)C[C@@H]2Oc3ccc(NC(=O)NC(C)C)cc3CC(=O)N([C@@H](C)CO)C[C@H]2C)cc1 | 1.3
Cc1noc(C)c1S(=O)(=O)N(C)C[C@H]1Oc2ccc(NC(=O)NC(C)C)cc2CC(=O)N([C@H](C)CO)C[C@H]1C | -0.3
C[C@H]1CN([C@@H](C)CO)C(=O)c2cc(NC(=O)CCCN(C)C)ccc2O[C@H]1CN(C)S(=O)(=O)c1cccs1 | 0.6
C[C@@H]1CN([C@@H](C)CO)C(=O)c2cccc(NS(=O)(=O)c3cn(C)cn3)c2O[C@H]1CN(C)S(=O)(=O)c1ccc(Cl)cc1 | 1.5
C[C@@H]1CCCCO[C@H](CN(C)Cc2ccc3c(c2)OCO3)[C@H](C)CN([C@@H](C)CO)C(=O)c2cc(NS(=O)(=O)c3cn(C)cn3)ccc2O1 | -0.2
O=C(NO)c1cccc(C(=O)N/N=C/c2cc(Br)ccc2O)c1 | 0.2
CC(C)NC(=O)Nc1ccc2c(c1)C(=O)N([C@H](C)CO)C[C@H](C)[C@@H](CN(C)Cc1ccncc1)OCCCC[C@H](C)O2 | -2.1
Cc1cc(C(=O)Nc2cccc3c2O[C@@H](CN(C)S(=O)(=O)c2ccc(Cl)cc2)[C@@H](C)CN([C@@H](C)CO)C3=O)n(C)n1 | -0.5
C[C@@H]1CN([C@H](C)CO)C(=O)Cc2cc(NC(=O)Nc3ccc(F)cc3)ccc2O[C@H]1CN(C)Cc1ccc(Cl)c(Cl)c1 | 0.6
C[C@@H]1CN([C@@H](C)CO)C(=O)c2cc(NC(=O)Nc3cccc4ccccc34)ccc2O[C@@H](C)CCCCO[C@@H]1CN(C)S(=O)(=O)c1ccc(Cl)cc1 | -1.0
C[C@@H]1CN([C@@H](C)CO)C(=O)Cc2cc(NS(=O)(=O)c3cn(C)cn3)ccc2O[C@@H]1CN(C)Cc1ccc(C(=O)O)cc1 | -0.1
COc1ccc(S(=O)(=O)N(C)C[C@@H]2Oc3ccc(NC(=O)Nc4cccc5ccccc45)cc3CC(=O)N([C@H](C)CO)C[C@H]2C)cc1 | 1.4
Cc1noc(C)c1NC(=O)Nc1ccc2c(c1)CC(=O)N([C@H](C)CO)C[C@H](C)[C@@H](CN(C)C(=O)NC(C)C)O2 | 0.3
CC(C)CNC(=O)[C@@]1(c2ccc([N+](=O)[O-])cc2)CC(=O)N(CC23CC4CC(CC(C4)C2)C3)[C@@H]1c1ccc(CO)cc1 | 0.5
